Screening results (PubChem BioAssay)
LANA-H2B inh: blocks KSHV LANA binding to histone H2A/H2B. 320,000 tested, 0.6% active. inhibition, % (test concentration not listed). Q9QR71. AID 2629. cell-free LANA-H2A/H2B peptide, fluorescence polarization; in the data active = inhibition mostly above about 10%, no sharp cut-off; inactive = mostly below about 6.7%;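 note: stock transfer was 7.5 nL into about 10 µL; 0% = median of vehicle wells and 100% = median of positive control wells; one replicate is shown; the record names a cut of 25% in any replicate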
Beta apoptosis: beta cell apoptosis inhibition | protection from apoptosis, % (no concentration beside the values) | AID 435005 | 300,000 tested, 0.8% active | INS-1E cytokine-induced death, ATP luminescence, 48 h; percent of positive-control rescue, neutral wells zero;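 active = all replicates at 75% or more, or half of them and the mean; inconclusive = half reach 75% but not the mean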;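 note: 0% = cytokine-treated negative control wells and 100% = positive control rescue; higher means more ATP so stronger rescue from cytokine killing; wells of about 40 µL received 100 nL stock; the first replicate is given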
Calb FLC: affects C. albicans growth with fluconazole; C. albicans CaCi-2 (fluconazole-resistant clinical isolate) + fluconazole, Alamar Blue growth, 48 h; growth inhibition, % (concentration not given with the values); 300,000 tested, 0.57% active; AID 1979;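 active = most replicates above 75%; inconclusive = exactly half above 75%; inactive = most below 75%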;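 note: all wells also contain fluconazole at 8 µg/ml as a sub-toxic cotreatment; 0% = median of DMSO wells and 100% = median of geldanamycin control wells; wells of about 8 µL received 7.5 nL stock; the first replicate is given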
Beta2AR agonist: agonists of human beta-2 adrenergic receptor inducing internalization. P07550. response, % (test concentration not listed). 340,000 tested, 0.43% active. Am2.2-beta2AR cells, FAP receptor internalization, flow cytometry; reference of the scale not given here;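 active = response above a set limit, near 3 SD of response in nonfluorescent compounds, cut at about 42% in these data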;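 note: stock transfer was 100 nL into about 11 µL; a reference agonist was the positive control; negative values mostly stem from fluorescent compounds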
Target sequence (P07550 whole entry, looked up): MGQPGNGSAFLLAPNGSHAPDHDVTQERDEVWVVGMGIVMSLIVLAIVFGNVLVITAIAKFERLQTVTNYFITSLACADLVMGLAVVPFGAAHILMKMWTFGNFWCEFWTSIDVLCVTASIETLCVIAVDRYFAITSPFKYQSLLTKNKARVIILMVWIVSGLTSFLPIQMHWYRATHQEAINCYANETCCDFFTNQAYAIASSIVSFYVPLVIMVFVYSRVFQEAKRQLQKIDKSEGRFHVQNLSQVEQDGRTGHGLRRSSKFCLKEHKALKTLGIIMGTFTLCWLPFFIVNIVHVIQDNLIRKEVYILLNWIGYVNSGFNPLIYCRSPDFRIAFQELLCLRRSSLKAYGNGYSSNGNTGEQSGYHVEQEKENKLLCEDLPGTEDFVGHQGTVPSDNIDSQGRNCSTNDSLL
T cruzi inh: T. cruzi replication inhibition; inhibition, % (test concentration not listed); AID 1885; 300,000 tested, 1.4% active; T. cruzi beta-gal in NIH3T3, luminescence, 90 h;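 active = mean inhibition across valid replicates above about 55%, limit read from the data; inconclusive = mean below that limit but half or more replicates reach it; inactive = mean below it, under half of replicates reach it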;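 note: signal also drops with host cell toxicity which is not excluded here; 0% = plate median of DMSO wells and 100% = zero luminescence signal; higher percent means less beta-gal luminescence so fewer parasites; stock transfer was 50 nL into about 50 µL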
A1 inh: inhibitors of the anti-apoptotic protein A1, read as caspase activation. MEF A1-2A-BIM cells, Caspase-Glo 3/7 luminescence, 3 h; percent of clofoctol response, vehicle zero. caspase activation, % (concentration not given with the values). 330,000 tested, 0.066% active. AID 2462;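 active = over half of replicate activation scores above 10%, or exactly half above 10 with the replicate mean above 10; inconclusive = replicate mean below 10 yet half the replicates above 10; inactive = over half of replicates below 10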;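 note: wells of about 30 µL received 50 nL stock; many hits fall short of the cut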
RanGTP-Impb inh: inhibitors of RanGTP-importin-beta interaction, primary screen, biochemical, FRET, CFP-Ran, YFP-importin-beta, homogeneous. cell-free CFP-Ran/YFP-importin-beta FRET ratio. inhibition, % (test concentration not listed). 300,000 tested, 1.1% active. AID 2216;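 active = most replicates above 15%; inconclusive = exactly half above 15%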;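 note: 0% = DMSO wells and 100% = Ran loaded with GDP instead of GTP; wells of about 40 µL received 100 nL stock; the first replicate is given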
UCH37 DUB inh: human UCH37 deubiquitinating enzyme inhibition; 330,000 tested, 0.33% active; Q9Y5K5; purified proteasome/UCH37, Ub-AMC cleavage fluorescence; inhibition, % (no concentration beside the values); AID 588478;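 active = mean of two replicates above 20%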;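 note: 0% = compound-free wells with enzyme and 100% = wells lacking proteasome; stock transfer was 100 nL into about 20 µL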
Target sequence (Q9Y5K5 whole entry, looked up): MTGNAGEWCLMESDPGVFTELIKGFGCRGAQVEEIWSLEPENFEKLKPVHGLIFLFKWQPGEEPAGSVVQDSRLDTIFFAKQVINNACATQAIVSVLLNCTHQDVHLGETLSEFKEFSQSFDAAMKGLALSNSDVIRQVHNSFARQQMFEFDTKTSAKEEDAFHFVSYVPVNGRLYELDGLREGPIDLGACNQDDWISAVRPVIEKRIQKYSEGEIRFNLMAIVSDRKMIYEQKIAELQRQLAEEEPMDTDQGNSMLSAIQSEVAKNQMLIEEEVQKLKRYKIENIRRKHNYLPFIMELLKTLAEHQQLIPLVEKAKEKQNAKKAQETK
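Signal – fluorescence, ex 355 nm, em 460 nm · System – Proteasome-bound UCH37 · Input – 0.15 nM proteasome as dispensed · Timing – 30 min preincubation with enzyme, 25 min cleavage at room temperature · Read-out basis – percent inhibition of cleavage signal versus uninhibited and no-proteasome wells · Medium – Tris-HCl pH 7.4 with ATP-MgCl2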
* marks the source's active call; other numbers are inactive results.

Sample of the layout:
How did O=C(c1ccco1)N1CCN(C(=O)c2cnn3c2NC(c2cccs2)CC3C(F)(F)F)CC1 (stereo not given) do in these assays?
LANA-H2B inh: -3.2; Beta apoptosis: 0; Calb FLC: -24; Beta2AR agonist: -2; T cruzi inh: 13; A1 inh: -0.5; RanGTP-Impb inh: inconclusive; UCH37 DUB inh: 1.3

What do the screens show for `O=C(c1cccc(Cl)c1)N1CCC2(CC1)NCCc1[nH]cnc12`?
LANA-H2B inh: 2.7; Beta apoptosis: 2; Calb FLC: 16; Beta2AR agonist: -4; T cruzi inh: 3; A1 inh: 2.5; RanGTP-Impb inh: 3.2; UCH37 DUB inh: 2.1

The listing, from the start:
How did O=C(c1ccco1)N1CCN(C(=O)c2cnn3c2NC(c2cccs2)CC3C(F)(F)F)CC1 (stereo not given) do in these assays?
LANA-H2B inh: -3.2; Beta apoptosis: 0; Calb FLC: -24; Beta2AR agonist: -2; T cruzi inh: 13; A1 inh: -0.5; RanGTP-Impb inh: inconclusive; UCH37 DUB inh: 1.3

What do the screens show for `O=C(c1cccc(Cl)c1)N1CCC2(CC1)NCCc1[nH]cnc12`?
LANA-H2B inh: 2.7; Beta apoptosis: 2; Calb FLC: 16; Beta2AR agonist: -4; T cruzi inh: 3; A1 inh: 2.5; RanGTP-Impb inh: 3.2; UCH37 DUB inh: 2.1

How did Cc1nnc(SCC(=O)Nc2ncc3c(n2)CC(c2ccccc2)CC3=O)s1 (stereo not given) do in these assays?
LANA-H2B inh: 1.8; Beta apoptosis: -6; Calb FLC: 3; Beta2AR agonist: -12; T cruzi inh: -20; A1 inh: -0.9; RanGTP-Impb inh: 0.4; UCH37 DUB inh: 1.8

How did O=C(c1ccc(Cl)cc1Cl)N1CCN(c2ccc(N3CCOCC3)nn2)CC1 do in these assays?
LANA-H2B inh: 2.8; Beta apoptosis: 0; Calb FLC: 2; Beta2AR agonist: 0; T cruzi inh: -4; A1 inh: 0.7; RanGTP-Impb inh: 1.8; UCH37 DUB inh: -151

How did CCN(CC)CCn1c(=N)n(CC(O)c2ccc(OC)c(OC)c2)c2ccccc21 (stereo not given) do in these assays?
LANA-H2B inh: 0.4; Beta apoptosis: -1; Calb FLC: -11; Beta2AR agonist: 9; T cruzi inh: -10; A1 inh: -0.3; RanGTP-Impb inh: inconclusive; UCH37 DUB inh: -1.6

How did C=CCn1c2ccccc2c2nnc(SCc3[nH]c(=O)[nH]c3C(=O)CCCCC(=O)OCC)nc21 do in these assays?
LANA-H2B inh: -2.5; Beta apoptosis: -31; Calb FLC: 10; Beta2AR agonist: 8; T cruzi inh: -16; A1 inh: -0.2; RanGTP-Impb inh: -2.8; UCH37 DUB inh: 3.8

Results for CC(=O)c1ccc(NC(=O)C(C)OC(=O)C2CC(=O)N(c3ccc4c(c3)OCCO4)C2)cc1 (stereo not given) ?
LANA-H2B inh: -5.4; Beta apoptosis: -9; Calb FLC: -6; Beta2AR agonist: -4; T cruzi inh: -11; A1 inh: 0.2; RanGTP-Impb inh: -2.8; UCH37 DUB inh: 2.8

Results for COC(=O)c1ccc(CNC(=O)COC(=O)CCC2CCCC2)cc1 ?
LANA-H2B inh: 2.3; Beta apoptosis: 0; Calb FLC: -10; Beta2AR agonist: 1; T cruzi inh: -17; A1 inh: 0.3; RanGTP-Impb inh: -1.7; UCH37 DUB inh: 1.8

What do the screens show for `O=C(CSCc1ccc(Cl)cc1)N/N=C/c1ccccc1`?
LANA-H2B inh: 0.9; Beta apoptosis: -5; Calb FLC: -52; Beta2AR agonist: -6; T cruzi inh: 1; A1 inh: -0.2; RanGTP-Impb inh: -1.6

What do the screens show for `COc1cccc(C(=O)CSc2nnc(CNS(C)(=O)=O)n2-c2ccc(C)cc2)c1`?
Calb FLC: 11; Beta2AR agonist: -1; T cruzi inh: 2; RanGTP-Impb inh: 1.6; UCH37 DUB inh: 1.0

How did COc1ccc(C)cc1NC(=O)c1nnn(Cc2cc(C)ccc2C)c1N do in these assays?
LANA-H2B inh: 0.4; Beta apoptosis: -13; Calb FLC: -15; Beta2AR agonist: 5; T cruzi inh: 2; A1 inh: 0.3; RanGTP-Impb inh: -2.5; UCH37 DUB inh: 0.9

How did CN(C)C(=O)CSc1nnc([C@H](Cc2c[nH]c3ccccc23)NC(=O)OC(C)(C)C)o1 do in these assays?
LANA-H2B inh: -4.6; Beta apoptosis: -1; Calb FLC: -6; Beta2AR agonist: 21; T cruzi inh: 2; A1 inh: 0.2; RanGTP-Impb inh: 3.8; UCH37 DUB inh: 4.9

How did O=C(OCc1ccc(COC(=O)c2ccc(O)cc2)cc1)c1ccc(O)cc1 do in these assays?
LANA-H2B inh: -7.4; Beta apoptosis: -1; Calb FLC: -1; Beta2AR agonist: 8; T cruzi inh: 5; A1 inh: -2.4; RanGTP-Impb inh: 3.2; UCH37 DUB inh: 4.9

What do the screens show for `COc1ccc(-c2nnc(SCC(=O)Nc3cc(C)on3)n2C)cc1OC`?
LANA-H2B inh: -3.0; Beta apoptosis: 1; Calb FLC: -8; Beta2AR agonist: 8; T cruzi inh: -9; A1 inh: 0.5; RanGTP-Impb inh: inconclusive; UCH37 DUB inh: 5.8

How did Cc1nc(N=Nc2ccc(O)cc2)n[nH]1 do in these assays?
LANA-H2B inh: 2.1; Beta apoptosis: 21; Calb FLC: -4; Beta2AR agonist: 2; T cruzi inh: 5; A1 inh: -14; RanGTP-Impb inh: -5.5; UCH37 DUB inh: 13

Results for Cn1c(=O)c(N)c2c3c(c(Br)ccc31)C(=O)c1ccccc1-2 ?
LANA-H2B inh: 43*; Beta apoptosis: 16; Calb FLC: 1; Beta2AR agonist: 20; T cruzi inh: 15; A1 inh: 0.6; RanGTP-Impb inh: inactive; UCH37 DUB inh: 9.7

Results for O=[N+]([O-])c1nn(-c2ccc3c(c2)OCCO3)n(O)c1=NC1CCCC1 ?
LANA-H2B inh: 2.2; Beta apoptosis: 19; Calb FLC: 9; Beta2AR agonist: -2; T cruzi inh: 90*; A1 inh: 0.3; RanGTP-Impb inh: 1.9; UCH37 DUB inh: 3.6

What do the screens show for `COc1ccc(NC(=O)c2ccccc2O)c(OC)c1`?
LANA-H2B inh: -1.6; Beta apoptosis: 0; Calb FLC: 50; Beta2AR agonist: 10; T cruzi inh: -26; A1 inh: -3.1; RanGTP-Impb inh: -0.5; UCH37 DUB inh: 2.6

What do the screens show for `O=C(O)C/C(=C\c1ccc(N2CCOCC2)c([N+](=O)[O-])c1)c1nc2ccccc2s1`?
LANA-H2B inh: 2.8; Beta apoptosis: -1; Calb FLC: -4; Beta2AR agonist: 16; T cruzi inh: 2; A1 inh: 0.0; RanGTP-Impb inh: -2.8; UCH37 DUB inh: 17

What do the screens show for `COc1ccc(-c2nnc(NC(=O)C(C)C)s2)c(OC)c1`?
LANA-H2B inh: -2.5; Beta apoptosis: -2; Calb FLC: -9; Beta2AR agonist: -7; T cruzi inh: -13; A1 inh: -0.7; RanGTP-Impb inh: -1.9; UCH37 DUB inh: -6.7

Results for CC(=O)NC(Cc1ccc(C)cc1)C(=O)NC1CCN(C(=O)NCc2ccccc2)CC1 (stereo not given) ?
Calb FLC: 0; Beta2AR agonist: 6; T cruzi inh: -7; RanGTP-Impb inh: inconclusive; UCH37 DUB inh: 2.4

What do the screens show for `CC1=CCC2C(=O)N(Cc3ccccc3)C(=O)C2C1` (stereo not given)?
LANA-H2B inh: 1.8; Beta apoptosis: -4; Calb FLC: 3; Beta2AR agonist: 3; T cruzi inh: -7; A1 inh: -0.3; RanGTP-Impb inh: 0.6; UCH37 DUB inh: 5.4

What do the screens show for `O=C(Nc1cccc(S(=O)(=O)NC2=NCCC2)c1)c1ccc(C(F)(F)F)cc1`?
LANA-H2B inh: -0.2; Beta apoptosis: -7; Beta2AR agonist: 2; A1 inh: -0.2; UCH37 DUB inh: 6.1

Results for Cc1ccc(C(OCC(C)(C)C[N+](C)(C)C)c2ccccc2)cc1 (stereo not given) ?
LANA-H2B inh: 1.2; Beta apoptosis: -2; Calb FLC: -61; Beta2AR agonist: 4; T cruzi inh: 33; A1 inh: -0.3; RanGTP-Impb inh: -0.6; UCH37 DUB inh: 0.3

How did O=C(c1ccc(Br)cc1)N1CCCc2ccccc21 do in these assays?
LANA-H2B inh: -0.2; Beta apoptosis: 7; Calb FLC: 3; Beta2AR agonist: 2; T cruzi inh: -5; A1 inh: 0.4; RanGTP-Impb inh: 0.1; UCH37 DUB inh: 1.1

How did CC(C)(C)NS(=O)(=O)c1cc(C(=O)O)ccc1Cl do in these assays?
LANA-H2B inh: 2.4; Beta apoptosis: -4; Calb FLC: -3; Beta2AR agonist: 2; T cruzi inh: -14; A1 inh: -0.4; RanGTP-Impb inh: -0.1; UCH37 DUB inh: 1.1

What do the screens show for `O=C1CC(c2ccc(S(=O)(=O)NC3CC3)cc2)CN1` (stereo not given)?
LANA-H2B inh: 4.0; Beta apoptosis: -7; Calb FLC: 12; Beta2AR agonist: 14; T cruzi inh: -7; A1 inh: -0.1; RanGTP-Impb inh: 4.6; UCH37 DUB inh: 6.0

What do the screens show for `O=S(=O)(c1cc(Cl)ccc1Cl)N1CCN(Cc2ccco2)CC1`?
LANA-H2B inh: 0.6; Beta apoptosis: 6; Calb FLC: 1; Beta2AR agonist: -5; T cruzi inh: 10; A1 inh: 0.5; RanGTP-Impb inh: -1.3; UCH37 DUB inh: 3.4

What do the screens show for `CC1CCN(c2ccc(C(=O)NCc3ccc4c(c3)OCO4)cc2[N+](=O)[O-])CC1`?
LANA-H2B inh: -1.7; Beta apoptosis: 2; Calb FLC: -2; Beta2AR agonist: 7; T cruzi inh: 38; A1 inh: 1.3; RanGTP-Impb inh: -4.2; UCH37 DUB inh: 2.2

What do the screens show for `COc1ccc(/C=C2\Sc3ccc(C(=O)N4CCN(Cc5ccccc5)CC4)cc3N(C)C2=O)cc1OC`?
LANA-H2B inh: 3.5; Beta apoptosis: 26; Calb FLC: -7; Beta2AR agonist: 20; T cruzi inh: 9; A1 inh: -2.5; RanGTP-Impb inh: 2.9; UCH37 DUB inh: -1.0

How did Cc1cccc(C)c1NC(=O)c1ccc(CN2CCc3ccccc3C2)cc1 do in these assays?
LANA-H2B inh: -1.2; Beta apoptosis: 1; Calb FLC: 0; Beta2AR agonist: 7; T cruzi inh: 5; A1 inh: 0.5; RanGTP-Impb inh: 0.0; UCH37 DUB inh: 1.0

Results for Cc1ccnc(NS(=O)(=O)c2ccc(N=CC3=C(O)CC(C)(C)CC3=O)cc2)n1 ?
LANA-H2B inh: 3.3; Beta apoptosis: -7; Calb FLC: 0; Beta2AR agonist: 6; T cruzi inh: -3; A1 inh: -0.3; RanGTP-Impb inh: inconclusive; UCH37 DUB inh: 9.9

How did CC(Oc1ccc2c(=O)c(-c3ccc(Cl)cc3)c(C(F)(F)F)oc2c1)C(=O)O (stereo not given) do in these assays?
LANA-H2B inh: -0.4; Beta apoptosis: -3; Calb FLC: -5; Beta2AR agonist: 2; T cruzi inh: -10; A1 inh: 0.0; RanGTP-Impb inh: -0.6; UCH37 DUB inh: 0.8

Results for Fc1ccccc1Cn1cnc(NC(=S)NCCc2ccccc2)n1 ?
LANA-H2B inh: 3.2; Beta apoptosis: -3; Calb FLC: 0; T cruzi inh: 1; A1 inh: -0.3; RanGTP-Impb inh: -4.1
